Screens as filed in PubChem BioAssay.
PINK1 modulator – A Quantitative High throughput Screen to Identify Chemical Modulators of PINK1 Expression | Potency, µM (top dose mostly 76.6 µM), inactives show at the highest dose activation (PINK1 increase), hits mostly activators | hit rate 0.2% among 410,000 | PINK1 immunofluorescence, high-content cytometry, 24 h; active = well fitted activation curve with a large enough effect; inconclusive = small, poorly fitted or top-dose-only effect; inactive = flat fitted curve, though single readings scatter; cell line not stated here;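 also: potency is read from the fitted curve at half-maximal effect; % of control where 0% means no effect; nearly all actives have a fitted effect of over 65% in size; a mitochondrial uncoupler was the plate control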
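PINK1 protein, normally rapidly degraded, was detected by immunofluorescence after 24 hour compound treatment of a stable cell line. Titration data (5 concentrations) came from laser-scanning cytometry, with CCCP-treated wells as controls.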
CtBP-E1A inh – qHTS Assay for Inhibitors of the CtBP/E1A Interaction | AlphaScreen GST-E1A/His-CtBP binding, 1536-well; stronger effect = lower value; control for the full effect not named in the record | AID 651724, 2012 | hit rate 0.49% among 340,000 | CtBP / adenovirus E1A interaction (AlphaScreen) | activity change, % (concentration not given with the values); in the data active means activity change below about -65%; inconclusive means about -30% to -65%; inactive means above about -30%; also: % is scaled to controls: 0 for no effect and ±100 for the full control effect
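Steps: dispense buffer (Tris pH 8.0, NaCl 300 mM, TCEP 1 mM, BSA, Tween 20); add 5X protein mix (GST-E1A, His-CtBP, 125 nM each); pin 23 nL compound; 2 h at 37 °C, dark; add 5X beads (50 ug/mL); 1 h; read.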
Six1-Eya2 blk – qHTS Assay for Inhibitors of the Six1/Eya2 Interaction; AlphaScreen GST-Six1/His-Eya2 binding, biochemical; stronger effect = lower value; control for the full effect not named in the record; activity change, % (test concentration not listed); hit rate 0.56% among 360,000; AID 651725, 2012; in the data active = activity change below about -65%; inconclusive = about -30% to -65%; inactive = above about -30%; also: % is scaled to controls: 0 for no effect and ±100 for the full control effect; compound concentration not given in the record
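Homogeneous AlphaScreen proximity assay pairing GST-Six1 with His-tagged Eya2 (added as 5X mix: 250 nM and 500 nM) in 50 mM Tris pH 8.0, 300 mM NaCl, 1 mM TCEP. Glutathione donor and nickel acceptor beads; 1 h, 37 °C, dark.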
D2 ag – Beta-Arrestin HTS for Positive Allosteric Modulators of the Human D2 Dopamine Receptor: Agonists. activation, % (test concentration not listed). AID 624465, 2012. hit rate 0.084% among 360,000. DiscoveRx PathHunter D2 beta-arrestin, luminescence, 90 min; 100% = 57 uM dopamine signal. D(2) dopamine receptor (Homo sapiens), P14416; in the data active = activation above about 40%; inconclusive = about 15% to 40%; inactive = below about 15%; also: compound concentration not given in the record; the text of the record calls up to 30% inactive
Target sequence (P14416 whole entry, looked up): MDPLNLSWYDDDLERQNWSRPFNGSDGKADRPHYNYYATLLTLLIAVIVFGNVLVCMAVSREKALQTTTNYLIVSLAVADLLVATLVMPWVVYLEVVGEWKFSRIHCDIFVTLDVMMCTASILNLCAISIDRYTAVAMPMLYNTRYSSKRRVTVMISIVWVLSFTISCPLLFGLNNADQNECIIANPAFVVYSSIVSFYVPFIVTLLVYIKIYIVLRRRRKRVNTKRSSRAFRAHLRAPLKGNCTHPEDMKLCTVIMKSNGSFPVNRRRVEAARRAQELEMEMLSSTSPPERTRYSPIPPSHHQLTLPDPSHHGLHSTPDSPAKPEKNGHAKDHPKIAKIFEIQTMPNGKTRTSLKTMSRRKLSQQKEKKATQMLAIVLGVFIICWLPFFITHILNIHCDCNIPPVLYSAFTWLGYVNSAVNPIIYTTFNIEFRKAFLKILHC
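Agonist mode: compounds alone added to overnight-plated D2 PathHunter cells for 90 min at 37 C, with 57 uM final dopamine (EC100) defining full response. Beta-arrestin recruitment detected by chemiluminescent reagent, read after 1 h at ambient temperature.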
TRPML1 blocker – qHTS for Inhibitors of the Human Mucolipin Transient Receptor Potential 1 (TRPML1); TRPML1-inducible cells, Ca2+ dye fluorescence, FDSS; stronger effect = lower value; inhibition of EC80 agonist-evoked calcium signal; activity change, negative = inhibition, % (test concentration not listed); Mucolipin-1 (Homo sapiens), Q9GZU1; hit rate 0.02% among 390,000; in the data active means activity change below about -50%; inconclusive means about -30% to -50%; inactive means above about -30%;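 also: stimulus is agonist 54-4 at its EC80 concentration; % is scaled to controls: 0 for no effect and ±100 for the full control effect; compound concentration not given in the record; the text of the record puts the active cut at -80%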
Target sequence (Q9GZU1 whole entry, looked up): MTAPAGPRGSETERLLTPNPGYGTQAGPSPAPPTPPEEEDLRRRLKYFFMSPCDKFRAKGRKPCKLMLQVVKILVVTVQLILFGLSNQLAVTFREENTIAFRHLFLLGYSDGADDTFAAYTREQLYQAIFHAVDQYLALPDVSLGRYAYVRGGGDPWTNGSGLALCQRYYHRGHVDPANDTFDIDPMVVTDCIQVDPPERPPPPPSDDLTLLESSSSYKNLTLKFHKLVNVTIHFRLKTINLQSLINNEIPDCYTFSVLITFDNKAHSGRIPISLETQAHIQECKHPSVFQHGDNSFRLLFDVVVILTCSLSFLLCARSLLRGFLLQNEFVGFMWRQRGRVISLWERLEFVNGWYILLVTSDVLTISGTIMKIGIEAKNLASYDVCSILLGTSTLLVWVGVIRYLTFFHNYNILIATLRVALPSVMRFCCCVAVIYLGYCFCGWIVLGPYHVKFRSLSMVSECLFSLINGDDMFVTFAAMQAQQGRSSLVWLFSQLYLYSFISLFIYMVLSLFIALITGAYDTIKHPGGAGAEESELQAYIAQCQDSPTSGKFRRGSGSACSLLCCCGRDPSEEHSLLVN
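TRPML1-DL cells, Tet-induced overnight (~16 h, 37 °C) at 1,500 cells/well, were loaded with Ca8 no-wash dye plus quencher for 45-90 min at room temperature. Compounds were pinned during FDSS kinetic reading; agonist 54-4 at EC80 (4 uM final) then added.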
TRPML1 agonist – qHTS for Agonists of the Human Mucolipin Transient Receptor Potential 1 (TRPML1). TRPML1-expressing cells, Ca2+ dye fluorescence, FDSS; host cell line not named in the record; reference of the full effect not given here. activation, % (test concentration not listed). hit rate 0.12% among 410,000; in the data active = activation above about 50%; inconclusive = about 30% to 50%; inactive = below about 30%; also: 0% is about no effect; the text of the record puts the active cut at 80%
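Calcium fluorescence on an FDSS kinetic reader gave the read-out. Tet-induced TRPML1-DL cells were plated overnight, dye-loaded (Ca8 with quencher, 45-90 min, room temperature, dark), then read 110 s after compound addition, and again 110 s after 4uM final 54-4 (EC80).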
Numbers without * were called inactive; ? = inconclusive; / = no result given; [ ] = another dose, or the depositor's remark. Rows are unselected; 1% or so of the library scored in one or more.

SMILES	PINK1 modulator	CtBP-E1A inh	Six1-Eya2 blk	D2 ag	TRPML1 blocker	TRPML1 agonist
CCOc1ccc(Cc2n[nH]c(=S)n2N)cc1	-0.8%	2	3	0.6	16	0.8
O=C1Nc2cc(C(=O)N3CCOCC3)ccc2S/C1=C/c1ccccc1F	-0.6%	4	3	0.8	-7	0.2
N#Cc1ccccc1Cn1cc(/C=C/[N+](=O)[O-])c2ccccc21	-3.0%	-22	8	4.0	16	3.6
CC(/C=C1\SC(=S)N(NC(=O)c2cccc(O)c2)C1=O)=C\c1ccccc1	?	-21	?	-2.5	-15	-1.8
O=C(CN1CCCCC1)N1CCc2ccccc21	-0.8%	10	5	0.8	0	0.0
Cc1cc(=O)oc2cc(OCC(=O)OCC(=O)NC3CC3)ccc12	-0.2%	18	4	-0.1	-4	0.3
O=C(CN1C(=O)CCC1=O)Nc1nc(-c2cccs2)cs1	0.0%	3	-25	-3.7	8	0.0
CSc1ccccc1OCc1cc(C(=O)NCCn2ccnc2C)no1	0.6%	-1	-5	-4.5	22	1.6
Cc1ccc(/C=C/C(=O)Nc2ccccc2C(N)=O)cc1	3.9%	19	3	-2.6	22	-0.6
O=C(Nc1ccon1)c1nc[nH]c1C(=O)N1CCN(c2ccccc2)CC1	-0.7%	-2	-2	-3.2	0	-0.9
CCc1nn(CC(=O)N2CCCCC2)c(=O)c2cc3sc(C)cc3n12	0.4%	/	/	/	15	-0.5
CC1(C)CC(=O)C=C(c2n[nH]nc2C2CC2)C1	-0.3%	-2	2	-1.9	/	/
CCCOc1ccccc1/C=N/NC(=O)C1CC1	3.6%	3	3	-2.0	13	0.8
NS(=O)(=O)c1ccc(NC(=O)COC(=O)C2(c3ccc(F)cc3)CCCC2)cc1	3.7%	-6	5	4.3	-2	1.7
CC(=O)N1CCc2cc([N+](=O)[O-])ccc21	-1.7%	10	-1	0.2	-6	-0.4
Cn1c(=O)c2c(ncn2CC(=O)N(Cc2ccccc2)c2ccccn2)n(C)c1=O	-1.6%[38.3 µM]	2	2	-2.9	19	1.0
CCn1c(C)nnc1SCC(=O)Nc1ccc(C(C)=O)cc1	-0.1%	/	0	0.3	-10	-0.5
CN(c1ccc(C(=O)NCc2ccccn2)cc1)S(C)(=O)=O	-4.4%[38.3 µM]	0	4	1.0	-3	0.3
COc1ccc(CN2CCNC(=O)C2CC(=O)NC2CCCCCC2)cc1C (stereo unspecified)	4.1%	-14	0	-3.1	2	-0.4
O=C1CCN(C(=O)CSc2ccc(Cl)cc2)N1	0.4%	6	-1	-4.7	-2	-0.6
O=C(c1ccncc1)N1c2ccccc2Sc2ccccc21	3.4%	3	2	11	14	3.5
Cc1ccc(CSc2nsc(C)c2C#N)cc1	3.5%	/	50	-2.7	38	4.1
O=C(NCCN1CCN(C(=O)NC2CCCCC2)CC1)NC1CCCCC1	6.3%	-1	8	-3.6	-12	-0.7
Cc1nnc(-c2ccccc2)c(=O)n1/N=C/c1c(O)ccc2ccccc12	-1.3%	-1	-94*	1.7	-7	?
Cn1nc(C(=O)Nc2nc(-c3ccc(F)cc3)cs2)ccc1=O	2.3%	11	10	-0.5	4	-0.2
Cn1c(=NC(=O)CS(=O)(=O)c2ccccc2)sc2cc([N+](=O)[O-])ccc21	12%	-6	1	-4.3	1	0.6
CCC(CC)C(=O)NCc1ccccc1Cl	-0.4%	3	5	-0.5	-1	-0.4
COCCNC(=O)c1cccc(NS(=O)(=O)c2cccc3cccnc23)c1	1.9%	4	6	-2.5	6	-0.1
COc1cccc(N2CCN(CC(=O)NC(=O)NCc3ccco3)CC2)c1	0.9%	0	-3	-0.8	-6	1.2
COc1ccc(-c2cc3ccc(O)c(CN4CCCC(C)C4)c3oc2=O)cc1OC (stereo unspecified)	2.5%	/	/	/	2	0.6
C=C(C)C1CC=C(C)/C(=N/NC(=O)COc2ccccc2Cl)C1 (stereo unspecified)	1.7%	-2	0	0.1	6	0.8
CC1CCCCN1S(=O)(=O)c1ccc(S(=O)(=O)NCCc2ccncc2)cc1 (stereo unspecified)	/	8	5	1.9	-8	0.6
COc1ccccc1NC(CC(=O)c1ccccc1)C(=O)OCC(=O)c1ccc(C)cc1 (stereo unspecified)	1.3%	-6	-19	-1.8	5	-0.1
O=c1[nH]c2ccccc2n2cnnc12	2.4%	/	-7	-1.0	-2	-0.1
O=c1[nH]c(N/N=C/c2ccccc2)nc2ccccc12	12%[38.3 µM]	5	-2	0.5	6	0.1
CSC1=N/C(=C\c2ccc(F)cc2)C(=O)S1	-0.2%	0	18	-7.7	-1	0.2
COc1cccc(C(=O)Nc2ccc3ccccc3c2)c1	3.6%	5	-8	-2.1	4	-0.8
COc1ccc(-n2nc(C(=O)NCC(=O)NCCCN3CCCCCC3)c3ccccc3c2=O)cc1Cl	1.7%	-4	-2	3.1	-10	0.0
Cc1ccc(-n2nc(CO)c(C(=O)NCCCCc3ccccc3)n2)cc1	0.0%	/	/	/	12	3.8
O=C(NCc1ccco1)C1CCCN(S(=O)(=O)c2ccccc2)C1 (stereo unspecified)	?	0	-2	-1.7	12	-0.6
Cc1c(C)n(Cc2ccccc2)c2ccc(C(=O)NCC(C)c3ccccc3)cc12 (stereo unspecified)	-0.8%	/	/	/	28	1.6
COc1cccc(NC(=O)COc2cccnc2[N+](=O)[O-])c1	-0.3%	-18	-11	-0.5	15	0.4
Cc1ccc(S(=O)(=O)N[C@@H](Cc2ccccc2)C(=O)N2CCC(C(=O)N[C@@H](CCC(N)=O)C(=O)O)CC2)cc1	-0.9%	0	3	-4.0	-2	-0.9
CCc1nc(C)ccc1OCC(=O)O	4.4%	7	11	-1.7	3	1.8
O=C(O)c1cccnc1SC1CC(=O)N(c2ccc(OC(F)F)cc2)C1=O (stereo unspecified)	0.7%	0	2	0.5	16	0.7
O=C(O)c1sccc1S(=O)(=O)c1ccccc1	0.4%	-1	-2	-2.3	24	7.8
COc1cc(C(=O)NCCCN2CCCC2=O)ccc1OCc1ccc(Cl)cc1Cl	5.8%	-6	-6	-3.8	-2	0.2
O=C(CSc1nc2ncccc2o1)Nc1ccc(Cl)cc1F	-0.1%	/	/	/	2	2.0
CCC1CCCCN1C(=O)c1sc(-n2nc(C)c(Cc3ccccc3)c2C)nc1C (stereo unspecified)	0.0%	/	/	/	21	-0.4
COc1ccc(NC2CCCN(C(=O)C3(C)CCCCC3)C2)cc1 (stereo unspecified)	-0.3%	-16	-7	2.3	4	-1.2
CCOC(=O)C1CCCN(CCC(=O)Nc2ccccc2C)C1 (stereo unspecified)	-1.0%	5	6	3.2	-17	0.9
CCCCn1nc2cc(C(=O)NCC34CC5CC(CC(C5)C3)C4)ccc2c1OCC	15%	-11	-4	-2.5	74	2.0
CC(=O)Nc1ccc2nc3c(=O)n(C)c(=O)n(C)c3nc2c1	-1.1%	-22	?	2.7	-1	14
COc1cc(C(=S)N2CCCC2)ccc1OCC(N)=O	1.8%	5	-3	-2.6	16	0.9
CCCn1nc(C(=O)NNC(=O)c2ccc(C)c(C)c2)c2ccccc2c1=O	-2.9%	1	-7	1.9	-2	0.2
COc1ccc(C2(C)C(C#N)C(=O)NC(=O)C2C#N)cc1 (stereo unspecified)	1.6%	-1	6	-3.0	-3	-0.1
O=c1c2c3c(sc2nc2n1CCC2)CCCC3	0.0%	-3	-1	0.6	-1	0.4
CCc1ccc(-n2c(=O)c3ccccc3n3c(=S)[nH]nc23)cc1	1.5%	/	3	-0.8	17	1.5
COC(C[C@@H](O)CC(=O)[C@H](C)OCc1ccccc1)OC	1.3%	/	0	1.7	-5	-0.3
CCN(C(=O)c1c(OC)cccc1OC)c1nnc(-c2cccnc2)s1	2.8%	-5	1	1.5	-9	0.9
The list goes on:
SMILES	PINK1 modulator	CtBP-E1A inh	Six1-Eya2 blk	D2 ag	TRPML1 blocker	TRPML1 agonist
O=C(CSc1nc2c([nH]c3ccccc32)c(=O)n1-c1ccccc1)N1CCCC1	1.0%	/	/	/	15	-0.6
CCOc1ccc(NC(=O)C2CCN(c3nnnn3-c3ccccc3)CC2)cc1	-2.8%	1	2	1.1	22	0.4
COc1ccc(Nc2c(-c3cc(Br)ccc3O)nc3ncccn23)cc1OC	5.5%	/	/	/	12	-0.6
Cc1ccc(NC(=O)c2cccc(N3C(=O)C4C5CCC(C5)C4C3=O)c2)c(C)c1 (stereo unspecified)	2.5%	0	3	-0.2	-3	-0.1
CNS(=O)(=O)c1cc(Br)ccc1S(=O)c1ccccc1C(=O)O (stereo unspecified)	-0.1%	7	5	-1.2	7	0.1
Cc1cccc(C)c1NC(=O)C(c1ccc([N+](=O)[O-])cc1)N(C)C(=O)c1ccccn1 (stereo unspecified)	-4.4%	5	-2	-4.1	-11	-0.3
CCOC(=O)C1=C(CC)Nc2ccccc2N=C1N	-0.7%	1	6	0.2	-4	-0.6
O=C(COc1ccccc1Cl)Nc1ccc2c(c1)C(=O)NC2=O	2.0%	-20	-21	-2.8	-14	1.2
N/C(=N\c1nc2c(c(=O)[nH]1)CCCC2)Nc1ccccc1	2.6%	-2	2	0.3	16	0.4
COc1ccc(-n2c(C)nnc2SCC(=O)NC2CC2)cc1	1.1%	-5	1	-1.5	-15	0.8
COc1ccc(CCN(Cc2ccccn2)C(=S)Nc2ccccc2F)cc1OC	-1.4%	4	0	-1.2	28	0.4
c1ccc(CNC2=NCCCCC2)cc1	12%[38.3 µM]	0	1	-3.2	7	-0.5
O=C(O)c1ccc(S(=O)(=O)c2ccc3c(c2)C(=O)N(NC(=O)c2ccccc2)C3=O)cc1	2.0%	-12	14	-2.2	-11	1.2
COc1ccc(Nc2c3c(nc4ccc(C)cc24)CCC3)cc1	?	-13	-4	0.8	31	1.5
Cc1ccc2nc(C3CCCCC3)[nH]c2c1	3.0%	/	-5	-1.6	-4	-1.1

Single records (already shown).
Results for COc1ccc(Nc2c(-c3cc(Br)ccc3O)nc3ncccn23)cc1OC = PINK1 modulator: 5.5%; CtBP-E1A inh: /; Six1-Eya2 blk: /; D2 ag: /; TRPML1 blocker: 12; TRPML1 agonist: -0.6
Results for COc1ccc(Nc2c3c(nc4ccc(C)cc24)CCC3)cc1 = PINK1 modulator: ?; CtBP-E1A inh: -13; Six1-Eya2 blk: -4; D2 ag: 0.8; TRPML1 blocker: 31; TRPML1 agonist: 1.5
